Screening results (PubChem)
MLL AF4-AF9 inh: MLL-AF4/AF9 protein interaction inhibition; P42568; AlphaScreen, biotin-AF4 peptide binding to FLAG-AF9; inhibition, % at 10 µM; 350,000 compounds, 0.47% hits;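 active = every replicate reaching a set inhibition limit, whatever the replicate mean, cut at about 25% in these data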;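 also: 0% = plate neutral control median and 100% = total signal loss; the record names both 10 and 1 µM as test concentration; the first replicate is given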
Target sequence (P42568 whole entry, looked up): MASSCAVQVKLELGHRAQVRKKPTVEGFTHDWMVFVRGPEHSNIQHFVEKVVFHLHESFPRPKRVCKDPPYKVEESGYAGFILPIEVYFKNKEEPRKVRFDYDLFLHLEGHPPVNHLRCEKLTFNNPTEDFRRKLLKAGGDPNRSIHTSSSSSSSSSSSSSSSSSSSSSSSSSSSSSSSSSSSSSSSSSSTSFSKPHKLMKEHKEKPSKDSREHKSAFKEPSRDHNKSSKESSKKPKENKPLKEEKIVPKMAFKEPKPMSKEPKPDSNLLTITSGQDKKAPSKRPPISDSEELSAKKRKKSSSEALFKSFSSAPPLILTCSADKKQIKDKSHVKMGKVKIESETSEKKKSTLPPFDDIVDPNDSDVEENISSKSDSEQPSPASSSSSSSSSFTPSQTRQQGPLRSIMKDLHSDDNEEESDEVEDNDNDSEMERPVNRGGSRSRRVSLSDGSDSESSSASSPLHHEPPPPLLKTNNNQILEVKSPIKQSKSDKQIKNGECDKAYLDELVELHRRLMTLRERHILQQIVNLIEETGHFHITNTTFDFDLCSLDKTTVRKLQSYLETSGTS
FGF22 binding: binders of recombinant human FGF22 by thermal shift; Q9HCT0; SYPRO orange fluorescence; percent of sucrose octasulfate shift, DMSO zero; calls only at 9.99 µM; 340,000 compounds, 1.5% hits;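 active = melting point raised past a set limit in the mean and every replicate; three in four hits are not shown here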
Target sequence (Q9HCT0 whole entry, looked up): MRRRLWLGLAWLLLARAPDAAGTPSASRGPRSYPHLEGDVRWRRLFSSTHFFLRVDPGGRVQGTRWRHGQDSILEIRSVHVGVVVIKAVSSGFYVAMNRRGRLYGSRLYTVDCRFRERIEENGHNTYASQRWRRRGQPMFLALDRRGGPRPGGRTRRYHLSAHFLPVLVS
Ecoli rRNA inh: inhibitors of bacterial rRNA selective over humanized ribosomes; E. coli WT GFP vs humanized-ribosome RFP mutants, fluorescence, 24 h; active compounds read low; DMSO median 0, no signal -100; GFP signal change (wild-type ribosome), % (no concentration beside the values); 350,000 compounds, 1.6% hits; AID 720706;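 active = significant combined selectivity score with lowered wild-type GFP, culture density cut under 30%, mutant RFP and density less affected; inactive = any of these conditions unmet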; also: one replicate is shown; some compounds called inactive have numbers as strong as hits
Ecoli rRNA inh OD600: further read-out of Ecoli rRNA inh, marked with its call; OD600 change, %; measured here: OD600 growth;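 optical density of the mix in the first replicate; 0 = DMSO median and -100 = no signal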
Ecoli rRNA inh RFP: second read-out of Ecoli rRNA inh, no call of its own (marks repeat the call); RFP signal change, %; measured here: RFP humanized mutant strains;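 first replicate; 0 = DMSO median and -100 = no signal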
* = called active by the depositor; i = inactive; . = no result given; + = active, no number. Only part of the results is shown (hit frequency here may not be typical).

entry	compound	MLL AF4-AF9 inh	FGF22 binding	Ecoli rRNA inh	Ecoli rRNA inh OD600	Ecoli rRNA inh RFP
1	O=C(C[C@@H]1C=C[C@H](NC(=O)c2ccc3c(c2)OCO3)[C@H](CO)O1)NCc1ccc(F)cc1	-2.7	i	0	9	-0.9
2	C[C@H](CO)N1C[C@H](C)[C@H](CN(C)C(=O)Nc2ccccc2)Oc2c(NC(=O)c3cnccn3)cccc2C1=O	-2.5	i	1	3	-3.2
3	COc1ccc(S(=O)(=O)N2CCCCCC2)cc1NC(=O)CCNC(=O)c1ccc(Cl)cc1	-1.3	i	-2	3	0.3
4	CNC[C@H]1OCCCC[C@@H](C)Oc2ccc(NC(=O)Nc3cccc4ccccc34)cc2C(=O)N([C@@H](C)CO)C[C@@H]1C	13	i	5	-5	0.8
5	C[C@H]1CN([C@@H](C)CO)C(=O)c2cc(NC(=O)Nc3cccc4ccccc34)ccc2O[C@H]1CN(C)Cc1ccc(C(=O)Nc2ccccc2N)cc1	-2.4	i	-9	-4	-0.3
6	COc1ccc(C#Cc2ccc3c(c2)[C@H]2[C@H](CCN2S(=O)(=O)c2ccccc2C)[C@H](CO)N3)cc1	2.2	i	1	13	-3.5
7	O=C(NCc1ccccc1)C1CCCN(C(=O)c2ccc(F)cc2)C1 (stereo not given)	0.1	i	-1	5	-7.6
8	COc1ccc2c3c([nH]c2c1)[C@@H](CO)N(Cc1ccccc1F)CC31CCN(C)CC1	19	i	3	2	2.4
9	C[C@@H]1CN([C@@H](C)CO)C(=O)c2cc(NC(=O)Nc3ccccc3)ccc2O[C@H]1CN(C)Cc1ccc(C(=O)O)cc1	-2.8	i	4	15	-1.7
10	Nc1nc(=S)c2ncn(C3CCCCC3)c2[nH]1	2.3	i	10	6	-1.5
11	O=C(C[C@H]1C[C@H]2c3cc(NC(=O)Cc4ccncc4)ccc3O[C@H]2[C@H](CO)O1)NCc1ccc2c(c1)OCO2	-2.5	i	-2	7	-3.4
12	CCN1C(=O)[C@H]2[C@H]3CN=C(SCc4ccc(Cl)cc4)N3[C@@](Cc3ccccc3)(C(=O)OC)[C@H]2C1=O	0.7	i	-25	-21	-4.0
13	COc1ccc(CCCNC(=O)C2Cc3c(-c4ccccc4)ccnc3O2)cc1 (stereo not given)	-2.2	i	-16	-27	-4.6
14	COc1ccc(S(=O)(=O)Nc2ccc3c(c2)C(=O)N([C@@H](C)CO)C[C@@H](C)[C@@H](CN(C)C(=O)Nc2ccc(C(F)(F)F)cc2)O3)cc1	0.3	i	-2	-8	0.2
15	COCCNC(=O)c1cc(-c2ccccc2)sc1N	1.8	i	-4	2	4.0
16	Cc1cc(Br)cn2c(Cc3cccc(Cl)c3)c(-c3ccco3)nc12	6.2	i	-21*	-9.3*	9.1*
17	C[C@@H]1COc2cc(N3CC[C@H](O)C3)ccc2S(=O)(=O)N1	-2.1	i	2	10	-2.2
18	CCNC(=O)c1cc2c(c(-c3cccc(-c4cccc(C(=O)N(C)C)c4)c3)n1)[C@@H](CCO)N(S(=O)C(C)(C)C)C2 (stereo not given in full)	6.3	i	-5	2	2.3
19	Cc1ccc([C@@H]2CC(=O)[C@@H]3CN(S(=O)(=O)c4ccc(C)cc4)[C@H](c4ccc(Cl)cc4)C[C@@H]3N2S(=O)(=O)c2ccc(C)cc2)cc1	1.3	i	26	23	2.7
20	C[C@@H]1CN([C@@H](C)CO)C(=O)c2cc(NS(=O)(=O)c3cccs3)ccc2O[C@@H](C)CCCCO[C@H]1CN(C)S(=O)(=O)c1ccccc1	-2.2	i	-1	-2	0.6
21	CC(C)NC(=O)C1C(c2ccc(C(F)(F)F)cc2)=Nc2ccccc2N1C(=O)c1ccccc1 (stereo not given)	5.1	.	0	10	4.6
22	C[C@H](CO)N1C[C@H](C)[C@H](CN(C)Cc2ccccc2)Oc2c(NC(=O)c3ccc(-c4nccs4)cc3)cccc2C1=O	-2.1	i	-2	2	-0.1
23	C[C@H]1CN([C@@H](C)CO)C(=O)c2cccc(NC(=O)Nc3cccc4ccccc34)c2O[C@@H]1CN(C)S(=O)(=O)c1ccccc1	1.8	i	1	-9	-1.8
24	COC(=O)[C@]12CCCCC=C1N(Cc1ccc3c(c1)OCO3)C(=O)[C@H](CC(=O)NCc1ccccc1)C2	1.7	i	-17	-29	0.1
25	COc1ccccc1CN(C)C[C@@H]1OCc2cn(nn2)CCCC(=O)N([C@H](C)CO)C[C@@H]1C	-1.6	i	2	3	0.6
26	C[C@@H]1CCCCO[C@H](CN(C)S(=O)(=O)c2ccc(Cl)cc2)[C@@H](C)CN([C@H](C)CO)C(=O)c2cc(NS(C)(=O)=O)ccc2O1	-0.7	i	-5	0	0.6
27	CC1=C(C(=O)N2CCOCC2)CC(CC(=O)NC2CCCCC2)C(=O)N1Cc1ccccc1 (stereo not given)	-1.8	i	15	7	4.9
28	COc1ccccc1S(=O)(=O)NCc1ccc(C(=O)NC2CCC(O)CC2)cc1 (stereo not given)	0.3	i	3	13	1.9
29	COc1ccccc1S(=O)(=O)N[C@H]1C=C[C@H](CC(=O)N2CCN(C)CC2)O[C@@H]1CO	-0.9	i	0	1	-4.5
30	COc1cccc(NC(=O)C2(C)CCN2Cc2ccccc2OC(F)F)c1 (stereo not given)	-2.6	i	-39	-64	-9.8

Entries by screen from above.
Ecoli rRNA inh RFP, compounds 7 to 18, in order: -7.6, 2.4, -1.7, -1.5, -3.4, -4.0, -4.6, 0.2, 4.0, 9.1*, -2.2, 2.3
MLL AF4-AF9 inh, compounds 7 to 18, in order: 0.1, 19, -2.8, 2.3, -2.5, 0.7, -2.2, 0.3, 1.8, 6.2, -2.1, 6.3

Returning to the listing; the three compounds before the break are reprinted first.
entry	smiles	MLL AF4-AF9 inh	FGF22 binding	Ecoli rRNA inh	Ecoli rRNA inh OD600	Ecoli rRNA inh RFP
28	COc1ccccc1S(=O)(=O)NCc1ccc(C(=O)NC2CCC(O)CC2)cc1 (stereo not given)	0.3	i	3	13	1.9
29	COc1ccccc1S(=O)(=O)N[C@H]1C=C[C@H](CC(=O)N2CCN(C)CC2)O[C@@H]1CO	-0.9	i	0	1	-4.5
30	COc1cccc(NC(=O)C2(C)CCN2Cc2ccccc2OC(F)F)c1 (stereo not given)	-2.6	i	-39	-64	-9.8
31	C[C@H](CO)N1C[C@H](C)[C@H](CN(C)C(=O)Nc2ccccc2)Oc2ccc(NC(=O)C3CCCCC3)cc2C1=O	-11	i	-3	-1	0.1
32	CCCNC(=O)Nc1ccc2c(c1)OC[C@H](C)N(C(=O)C1CC1)C[C@@H](C)[C@@H](OC)CN(C)C2=O	-11	i	1	3	0.7
33	COCC(=O)N1[C@H](C(=O)N2CCCCC2)[C@@H](CO)[C@@H]2Cn3c(ccc(C4=CCCCC4)c3=O)[C@@H]21	-1.3	i	2	9	-3.9
34	COc1ccc(S(=O)(=O)N(C)C[C@H]2Oc3ccc(NC(=O)Nc4c(C)noc4C)cc3CC(=O)N([C@@H](C)CO)C[C@H]2C)cc1	-2.5	i	-3	10	-0.4
35	Cc1ccccc1Nc1nc(N)nc(COC(=O)c2ccc3c(c2)OCCO3)n1	2.1	i	-1	-24	-3.0
36	COc1cccc(C(=O)Nc2ccc3c(c2)C(=O)N(C)C[C@H](OC)[C@@H](C)CN(C(C)=O)[C@H](C)CO3)c1	0.6	i	0	1	-0.8
37	O=C(C[C@@H]1CC[C@@H]2[C@H](COC[C@@H](O)CN2Cc2cccc(Cl)c2)O1)NCC1CCCCC1	1.0	i	-30	-65	0.8
38	Cc1cc2oc(=O)cc(CN(C)Cc3ccccc3)c2cc1C	-1.4	i	-11	-47	-13
39	Cc1ccc(S(=O)(=O)Nc2ccc3c(c2)C(=O)N([C@H](C)CO)C[C@H](C)[C@H](CN(C)C)OCCCC[C@H](C)O3)cc1	-1.9	i	-4	-4	-1.7
40	COC(=O)c1cc2c(c3c4cc(C)ccc4n(S(=O)(=O)c4cccc(C)c4)c13)C(=O)N(C)C2	2.3	i	5	4	22
41	CCC(=O)N1C[C@@H](C)[C@@H](OC)CN(C)C(=O)c2cc(NS(=O)(=O)CC)ccc2OC[C@H]1C	-0.9	i	0	6	3.9
42	CC1(C(=O)NS(=O)(=O)c2cccs2)CCN1C(=O)c1ccccc1CCc1ccccc1 (stereo not given)	-3.8	i	-5	-5	-0.2
43	CN(C)C(=O)C[C@@H]1CC[C@@H]2[C@H](COC[C@H](O)CN2S(=O)(=O)c2ccccc2)O1	-4.6	i	2	15	-3.4
44	CO[C@@H]1CN(C)C(=O)c2ccc(NC(C)=O)cc2OC[C@H](C)N(C(=O)c2ccncc2)C[C@@H]1C	-1.2	i	1	-11	-1.6
45	COc1ccc(NC(=O)Nc2cccc3c2O[C@@H](CN(C)Cc2ccc(Oc4ccccc4)cc2)[C@H](C)CN([C@H](C)CO)C3=O)cc1	1.6	i	-2	-5	-0.8
46	C[C@@H]1CN([C@H](C)CO)C(=O)c2cc(-c3ccncc3)cnc2O[C@@H]1CN(C)C(=O)c1cccc(F)c1	-0.8	i	0	2	-2.6
47	CC(=O)N1[C@H](CO)[C@@H](c2ccccc2)C12CN(C(=O)c1cnccn1)C2	2.8	i	4	7	-4.2
48	Cc1noc(C)c1NC(=O)N(C)C[C@@H]1Oc2ccc(NC(=O)Nc3ccc4c(c3)OCO4)cc2C(=O)N([C@H](C)CO)C[C@@H]1C	2.4	i	1	3	-1.3
49	C[C@@H]1CN([C@H](C)CO)C(=O)Cc2cc(NC(=O)Cc3ccccc3)ccc2O[C@@H]1CN(C)Cc1ccc(Cl)c(Cl)c1	2.8	i	-6	2	2.3
50	CC(C)NC(=O)N(C)C[C@H]1Oc2cc(C3=CCCC3)ccc2S(=O)(=O)N([C@@H](C)CO)C[C@@H]1C	-10	i	0	-9	-1.6
51	O=C(C[C@@H]1C=C[C@@H](NC(=O)Nc2cc(F)ccc2F)[C@H](CO)O1)NCCCN1CCOCC1	0.0	i	2	7	-0.6
52	COc1cc2ccc(C(C)=O)c(O)c2cc1OC	0.5	i	-12	-14	-4.6
53	COc1cc(C2c3cc4c(cc3OC(NNC(N)=S)C2C)OCO4)cc(OC)c1OC (stereo not given)	0.7	i	-4	3	-2.2
54	COc1ccc(NC(=O)N(C)C[C@@H]2Oc3ccc(N(C)C)cc3CC(=O)N([C@@H](C)CO)C[C@H]2C)cc1	0.1	i	4	-3	-0.4
55	COc1cccc(S(=O)(=O)N[C@@H]2CC[C@@H](CCNC(=O)Nc3cc(F)ccc3F)O[C@@H]2CO)c1	5.3	i	-6	-11	0.5
56	COc1ccc(C(C)(O)c2nc(-c3cc(F)cc(F)c3)cs2)cc1 (stereo not given)	-3.2	i	-26	-36	-4.2
57	C[C@H](NS(=O)(=O)c1ccc2c(c1)OCCCO2)C(=O)N1CCN(Cc2ccccc2)CC1	1.5	i	2	7	-0.7
58	C[C@@H]1CCCCO[C@@H](CN(C)C(=O)CCCN(C)C)[C@H](C)CN([C@@H](C)CO)C(=O)c2cc(NS(=O)(=O)c3cccs3)ccc2O1	-0.8	+	-2	0	-0.9
59	CC(C)NC(=O)Nc1ccc2c(c1)C(=O)N([C@@H](C)CO)C[C@H](C)[C@@H](CN(C)S(=O)(=O)c1ccc(F)cc1)OCCCC[C@H](C)O2	0.7	i	-2	-2	-0.6
60	C[C@@H]1CN([C@H](C)CO)C(=O)c2cc(NC(=O)Nc3ccc4c(c3)OCO4)ccc2O[C@@H](C)CCCCO[C@@H]1CN(C)Cc1ccccc1	7.1	i	-3	-30	9.2
61	Cn1ncc2c(=O)[nH]nnc21	-27	i	10	14	-0.6
62	C[C@H](CO)N1C[C@H](C)[C@H](CN(C)Cc2ccc(-c3ccccc3)cc2)OCc2cnnn2CCCC1=O	3.5	i	-5	-10	9.4
63	CC(C)NC(=O)N(C)C[C@H]1OCCCC[C@H](C)Oc2ccc(NS(=O)(=O)c3cccs3)cc2C(=O)N([C@@H](C)CO)C[C@H]1C	-3.3	i	-1	-4	-0.9
64	O=C(C[C@H]1C=C[C@@H](NS(=O)(=O)c2ccccc2)[C@@H](CO)O1)NCCN1CCCCC1	-0.2	i	3	15	0.2
65	N#Cc1ccc(-c2ccc([C@H]3[C@H](CO)N4CCCCN(S(=O)(=O)c5ccccc5)C[C@@H]34)cc2)cc1	1.2	i	-23	-53	1.0
66	O=C(NCC[C@@H]1CC[C@H](NS(=O)(=O)c2cccc(F)c2)[C@H](CO)O1)Nc1cc(F)ccc1F	-3.2	i	-6	1	-2.7
67	O=C(C[C@H]1C[C@@H]2c3cc(NC(=O)C4CCC4)ccc3O[C@@H]2[C@@H](CO)O1)NCc1cc(F)ccc1F	0.8	i	-10	-14	3.3
68	CCC(=O)N1[C@H](CO)[C@@H](c2ccccc2)[C@@H]1CN(CC)C(=O)c1ccc(F)cc1	0.1	i	-1	-3	-1.5
